Screening results as filed in PubChem.
TRPML1 ag = agonists of human TRPML1 channel; Q9GZU1; TRPML1-expressing cells, Ca2+ dye fluorescence, FDSS; host cell line not named in the record; reference of the full effect not given here; activation, % (no concentration beside the values); 0.12% of 410,000 active; AID 624414; in the data active = activation above about 50%; inconclusive = about 30% to 50%; inactive = below about 30%; further: 0% is about no effect; the text of the record puts the active cut at 80%
Target sequence (Q9GZU1 whole entry, looked up): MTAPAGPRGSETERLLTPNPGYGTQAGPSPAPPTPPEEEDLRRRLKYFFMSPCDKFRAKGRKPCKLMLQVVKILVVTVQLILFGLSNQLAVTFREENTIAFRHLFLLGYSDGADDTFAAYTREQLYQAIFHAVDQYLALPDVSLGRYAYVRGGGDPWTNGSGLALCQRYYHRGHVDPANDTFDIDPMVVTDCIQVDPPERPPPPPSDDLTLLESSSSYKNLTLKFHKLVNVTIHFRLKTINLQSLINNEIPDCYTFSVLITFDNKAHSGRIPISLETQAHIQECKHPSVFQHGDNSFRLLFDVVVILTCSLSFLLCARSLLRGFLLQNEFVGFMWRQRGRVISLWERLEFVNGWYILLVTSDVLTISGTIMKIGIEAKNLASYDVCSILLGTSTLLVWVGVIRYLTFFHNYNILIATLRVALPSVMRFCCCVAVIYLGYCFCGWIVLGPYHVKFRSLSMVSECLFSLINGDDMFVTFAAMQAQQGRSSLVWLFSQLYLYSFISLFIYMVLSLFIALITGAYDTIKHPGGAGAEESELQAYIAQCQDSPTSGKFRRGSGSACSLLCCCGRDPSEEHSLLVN
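Tet-induced TRPML1-DL cells, 1,500 per well, cultured overnight, were loaded with a no-wash Ca2+ dye for 45–90 min. Calcium fluorescence was recorded on the FDSS for 110 s after compound addition, before the EC80 agonist (4 uM 54-4) was added.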
D2 PAM = human D2 receptor positive allosteric modulation; P14416; DiscoveRx D2 beta-arrestin cells, luminescence, 90 min; 100% = 57 uM dopamine signal; potentiation, % (test concentration not listed); 0.23% of 360,000 active; AID 624464; active = potentiation of 50% or more; inconclusive = 30% to 50%; inactive = 30% or less;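 further: compound concentration not given in the record; tested on top of an EC20 dose of dopamine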
Target sequence (P14416 whole entry, looked up): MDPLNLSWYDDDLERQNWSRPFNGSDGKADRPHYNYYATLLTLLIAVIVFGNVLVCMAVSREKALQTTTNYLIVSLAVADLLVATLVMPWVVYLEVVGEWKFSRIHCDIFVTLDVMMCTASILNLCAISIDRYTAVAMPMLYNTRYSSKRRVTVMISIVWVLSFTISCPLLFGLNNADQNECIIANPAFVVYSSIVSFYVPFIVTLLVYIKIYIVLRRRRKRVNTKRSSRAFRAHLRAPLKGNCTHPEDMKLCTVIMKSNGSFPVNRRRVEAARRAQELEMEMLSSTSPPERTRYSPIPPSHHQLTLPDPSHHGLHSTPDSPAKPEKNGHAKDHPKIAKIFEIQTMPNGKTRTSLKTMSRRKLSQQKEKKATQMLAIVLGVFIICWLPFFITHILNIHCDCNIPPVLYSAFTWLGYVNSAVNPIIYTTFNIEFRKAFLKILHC
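D2 cells co-treated with compound plus 50 nM dopamine (EC20) for 90 min at 37 deg C to detect potentiation. Beta-arrestin recruitment was read as enzyme-fragment luminescence after 1 h at ambient temperature. Full response was set by 57 uM dopamine.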
D2 agonist = agonists of human D2 dopamine receptor (beta-arrestin); 0.084% of 360,000 active; DiscoveRx PathHunter D2 beta-arrestin, luminescence, 90 min; 100% = 57 uM dopamine signal; P14416; activation, % (no concentration beside the values); in the data active = activation above about 40%; inconclusive = about 15% to 40%; inactive = below about 15%; further: compound concentration not given in the record; the text of the record calls up to 30% inactive
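DiscoveRx PathHunter D2 beta-arrestin cells (2,100/well) attached overnight, then compound-stimulated 90 min at 37 C in HBSS/10 mM HEPES/0.1% Tween-20 buffer; beta-galactosidase complementation read by luminescence after 1 h at ambient temperature. Dopamine 57 uM final (EC100) as control.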
Six1-Eya2 blk = inhibitors of human Six1/Eya2 interaction. Q15475+O00167. AlphaScreen GST-Six1/His-Eya2 binding, biochemical; active compounds read low; control for the full effect not named in the record. activity change, % (concentration not given with the values). 0.56% of 360,000 active; in the data active = activity change below about -65%; inconclusive = about -30% to -65%; inactive = above about -30%; further: on the % scale 0 is the no-effect control and ±100 the full control effect
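AlphaScreen luminescence read after one hour at 37 °C in darkness. Pin-transferred compounds met GST-Six1 and His-Eya2 protein (5X stock 250 nM/500 nM) plus glutathione donor and Ni-chelate acceptor beads (5X, 50 ug/mL).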
PINK1 expr mod = modulators of PINK1 expression; PINK1 immunofluorescence, high-content cytometry, 24 h; Potency, µM (doses to about 76.6 µM), without a hit: at the highest dose activation (PINK1 increase), hits mostly activators; 0.2% of 410,000 active; AID 624263; active = well fitted activation curve with a large enough effect; inconclusive = small, poorly fitted or top-dose-only effect; inactive = flat fitted curve, though single readings scatter; cell line not stated here;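 further: potency means the concentration at half of the fitted maximal effect; % of control where 0% means no effect; nearly all actives have a fitted effect of over 65% in size; a mitochondrial uncoupler was the plate control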
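Stable cell line, 250 cells/well, 12 h attachment; compounds pinned at 5 concentrations, 24 h; CCCP control. Fixed with nuclear dye, primary antibodies 12 h at 10 degrees C, secondary plus cell stain; laser-scanning cytometer read.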
CtBP-E1A blk = blocks the CtBP interaction with E1A; AlphaScreen GST-E1A/His-CtBP binding, 1536-well; active compounds read low; control for the full effect not named in the record; AID 651724; activity change, % (test concentration not listed); 0.49% of 340,000 active; in the data active means activity change below about -65%; inconclusive means about -30% to -65%; inactive means above about -30%; further: on the % scale 0 is the no-effect control and ±100 the full control effect
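Steps: dispense buffer (Tris pH 8.0, NaCl 300 mM, TCEP 1 mM, BSA, Tween 20); add 5X protein mix (GST-E1A, His-CtBP, 125 nM each); pin 23 nL compound; 2 h at 37 °C, dark; add 5X beads (50 ug/mL); 1 h; read.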
Starred values were filed as active, the others as inactive; ? = inconclusive; . = no result given; [ ] = dose if it differs, or a comment.

The first four records (preview)
Below each SMILES – Six1-Eya2 blk	PINK1 expr mod	D2 agonist	CtBP-E1A blk	TRPML1 ag	D2 PAM
- CC(=O)c1ccc(NC(=O)C2CCCN2S(=O)(=O)c2ccc(C)cc2)cc1 (configuration not stated)
 : 0	-3.0%	-4.2	5	1.8	-7
- Cc1ccc(S(=O)(=O)N2CCC(=O)N(C(COCc3ccc(Cl)cc3)Cc3ccccc3)CC2)cc1 (configuration not stated)
 : 0	1.9%	-1.6	1	7.4	-6
- CCc1ccc(S(=O)(=O)Nc2c(C)nn(C)c2C)cc1
 : 1	9.2%[38.3 µM]	-0.4	3	-0.5	0
- O=C(O)/C=C/C(=O)c1ccc(O)cc1
 : -8	-1.6%	4.7	-6	1.0	-3

The list itself (from the top)
Below each SMILES – Six1-Eya2 blk	PINK1 expr mod	D2 agonist	CtBP-E1A blk	TRPML1 ag	D2 PAM
- CC(=O)c1ccc(NC(=O)C2CCCN2S(=O)(=O)c2ccc(C)cc2)cc1 (configuration not stated)
 : 0	-3.0%	-4.2	5	1.8	-7
- Cc1ccc(S(=O)(=O)N2CCC(=O)N(C(COCc3ccc(Cl)cc3)Cc3ccccc3)CC2)cc1 (configuration not stated)
 : 0	1.9%	-1.6	1	7.4	-6
- CCc1ccc(S(=O)(=O)Nc2c(C)nn(C)c2C)cc1
 : 1	9.2%[38.3 µM]	-0.4	3	-0.5	0
- O=C(O)/C=C/C(=O)c1ccc(O)cc1
 : -8	-1.6%	4.7	-6	1.0	-3
- COCCNC(=O)C1(C)CCCN(C(=O)c2cc(F)cc(F)c2)C1 (configuration not stated)
 : 9	1.4%	-3.2	-22	-0.2	1
- CCC(=O)NNc1nc2c(F)cc(F)cc2s1
 : -3	2.7%	1.0	2	-0.1	1
- CCN(CC)C(=O)c1sc2nc(-c3ccc(OC)cc3)cn2c1C
 : -7	0.2%	4.3	-13	0.1	-7
- CCN(C(=N)N=C(N)N)c1ccccc1
 : -2	-0.6%	0.9	.	0.4	-8
- COc1ccc(Cc2n[nH]c(=S)n2Cc2ccccc2)cc1Cl
 : -3	0.8%	3.6	-2	2.0	-5
- CCOC(=O)C1CCN(c2ncnc3c2cnn3C)CC1
 : 0	2.8%	-4.9	.	0.7	-18
- ON(CCc1ccncc1)Cc1ccccc1
 : 6	0.2%	-4.0	4	0.8	-12
- CS(=O)(=O)N1CCC2(CC1)OCCN2S(=O)(=O)c1ccccc1
 : 8	2.9%	-1.6	-1	0.8	-13
- Cc1c(N=C2C=C(Br)C(=O)C(Br)=C2)c(=O)n(-c2ccccc2)n1C
 : -8	1.9%	-0.2	2	1.4	11
- Cc1ccc(-c2n[nH]c(=S)n2/N=C/C=C\c2ccccc2[N+](=O)[O-])cc1
 : -15	-4.8%	0.7	-9	3.9	2
- CCc1ccc(CCC(=O)Nc2ccc(C)cc2C)o1
 : -7	12%[38.3 µM]	-0.4	7	1.8	-11
- COc1ccc(-n2c(=O)c3c(C)c(C)sc3n(Cc3cccc(F)c3)c2=O)c(OC)c1
 : 4	-0.6%	-6.6	9	.	-2
- CCOC(=O)C1=CN(Cc2ccco2)S(=O)(=O)N(C)C1c1ccc(F)c(Cl)c1 (configuration not stated)
 : -7	0.7%	2.2	-6	-0.6	.
- O=C(N/N=C/c1ccc([N+](=O)[O-])o1)c1sc2ccccc2c1Cl
 : ?	13%	-0.2	.	-0.6	-9
- CCn1c(SCC(=O)Nc2ccc(F)cc2)nc2ccccc2c1=O
 : -9	0.5%	2.0	.	2.0	-6
- CC(=O)Oc1cc2oc(=O)cc(C)c2cc1Cl
 : -6	-0.3%	1.2	7	0.3	1
- CCC(c1nnnn1-c1ccc2c(c1)OCCO2)N1CCN(C)CC1 (configuration not stated)
 : 3	0.9%	.	8	-0.2	.
- CC1=Nc2cccc3cccc(c23)N1
 : -30	0.1%	7.0	?	0.4	56*
- CC1CCC2(CC1)NC(=O)N(CC(=O)Nc1ccc(C(N)=O)cc1)C2=O (configuration not stated)
 : 7	0.5%	1.1	-4	0.0	-1
- COc1cc2oc(=O)cc(-c3ccc(-c4ccc(C)cc4)cc3)c2c(OC)c1OC
 : 0	0.3%	-1.1	5	-0.9	-2
- O=C(COC(=O)/C=C/c1ccc(OC(F)F)cc1)Nc1ccc(S(=O)(=O)N2CCCC2)cc1
 : -7	1.4%	0.5	-28	2.3	-3
- O=C(NCc1ccccc1Cl)c1ccc2nc[nH]c2c1
 : -4	-1.3%	-1.9	-19	-0.4	2
- CC(C)(C)OC(=O)NCc1ccc(CNC(=O)c2nc[nH]c2C(=O)N2CCc3ccccc3C2)cc1
 : -25	0.2%	3.0	-12	0.3	3
- C/C(=N\NC(=O)c1nc2ccccn2c1C)c1cccc([N+](=O)[O-])c1
 : 0	0.7%	-0.7	1	0.3	-4
- CCOc1ccc(CN2CCNC(=O)C2CC(=O)NCCCOc2cccnc2)cc1 (configuration not stated)
 : 2	0.2%	1.9	-7	0.5	-9
- Nc1ccc2c(c1)C(=O)C(=O)c1ccccc1-2
 : ?	-3.9%	?	?	1.6	?
- COC(=O)Cc1ccc(NC(=S)NCCCN2CCOCC2)cc1
 : -5	-0.5%	-2.2	0	-0.4	-11
- O=C(N/N=C\c1ccc[nH]1)C1COc2ccccc2O1 (configuration not stated)
 : -12	-0.2%	-0.6	-5	4.9	-2
- Cc1cnn(-c2cc(N/N=C/c3ccccc3)ncn2)c1
 : 0	28%[38.3 µM]	-1.6	0	0.9	-7
- O=C(Nc1ccc(S(=O)(=O)NCc2ccco2)cc1)c1ccc2ccccc2n1
 : 1	8.7%	0.8	-1	0.3	26
- CCN(CC)c1ncnc2sc(C(=O)N3CCN(c4ccc(OC)cc4)CC3)c(C)c12
 : 10	0.9%	1.4	4	-0.2	5
- N#C/C(=C/c1ccc(N2CCOCC2)o1)C(=O)N1CCOCC1
 : -6	-0.5%	-2.2	-14	12	-23
- C[C@H]1O[C@H](C2CCCC2)CC2=C1C(=O)OC(C)(C)O2
 : 0	1.5%	.	3	-1.1	.
- CCNc1nc(OCC)nc(N2CCC(Cc3ccccc3)CC2)n1
 : 1	13%	-7.0	0	1.6	-16
- C[C@H]1CN([C@@H](C)CO)C(=O)CCCn2cc(nn2)CO[C@@H]1CN(C)C(=O)Nc1ccc(C(F)(F)F)cc1
 : 18	3.2%	1.1	15	-0.1	4
- COc1ccc(C(=O)Nc2c(N)nc(SCC(=O)N3CCC(C)CC3)[nH]c2=O)cc1
 : 1	-0.9%	-0.7	-9	0.4	3
- C#CCOCCOCCOCCNc1nc(N2CCN(C(=O)CCCCCCCCCCNC(=O)Cn3cc(C[C@@H](C)O)nn3)CC2)nc(N2CCN(C(=O)CCCCCCCCCCNC(=O)[C@H](CO)n3cc(CCCSC)nn3)CC2)n1
 : -1	1.4%	-3.3	0	0.2	9
- Cc1ccc(NC(=O)N(C2CCCCC2)C(C)c2cccnc2)cc1C (configuration not stated)
 : -3	5.2%	-4.1	3	-0.4	-5
- COCCn1c(C)cc(C(=O)CN2C(=O)NC3(CCCCCCC3)C2=O)c1C
 : -1	-4.7%[38.3 µM]	1.3	12	1.3	-2
- CC1CCN(c2nnc(NC(=O)Cn3c(=O)oc4ccccc43)s2)CC1
 : 6	-0.2%	-1.5	7	-0.1	-1
- Oc1ccccc1/C=N/Nc1nc2ccccc2o1
 : -72*	3.9%	-1.1	-77*	0.2	-2
- CCNc1nc(Oc2ccc(=O)[nH]n2)nc(SC)n1
 : 8	0.7%	-3.0	-2	-0.6	-7
- CCC(/C=N/NC(=O)C1COc2ccccc2O1)CC (configuration not stated)
 : 5	1.8%	-3.9	3	-0.6	-9
- CN(CCNC(=O)c1c[nH]c2c1ccc1ccccc12)CCNC(=O)c1c[nH]c2c1ccc1ccccc12
 : -21	-1.7%	12	15	0.2	6
- O=C1CCCN1CCCNC(=S)Nc1ccc(F)cc1
 : 3	1.8%	-1.9	-6	0.7	-3
- CCOC(=O)CC1C(=O)NCCN1C(=O)c1ccc(Cl)cc1 (configuration not stated)
 : 6	-0.5%	-1.7	-18	0.0	-8
- COc1ccc(CC2(C)OC(c3ccc(C)c([N+](=O)[O-])c3)=NN2C(C)=O)cc1 (configuration not stated)
 : -3	6.6%	-5.0	9	2.6	-16
- CC(=O)C(C)Oc1ccc(Cc2ncc(C(F)(F)F)cc2Cl)cc1 (configuration not stated)
 : 19	4.2%	5.1	19	1.6	2
- COCC1CCN(C(=O)c2cc(COc3ccc(F)cc3F)on2)C1 (configuration not stated)
 : 9	-0.8%	-2.7	.	1.0	-5
- O=C(/C=C/Nc1ccc(F)cc1Br)c1ccccc1
 : 5	2.7%	1.0	11	0.8	-19
- CCOC(=O)C1(C)CCCN1C(=O)c1ccccc1OC (configuration not stated)
 : 1	1.6%	-2.3	3	-0.4	-3
- CCOC(=O)C1=C(C)NC(=O)NC1c1cc2c(cc1Br)OCO2 (configuration not stated)
 : 0	-2.5%	-2.8	4	0.3	-9
- Cc1ccc(-c2nnc(SCc3ccccc3F)o2)cc1
 : 32	-2.1%[38.3 µM]	-1.7	49	5.5	-4
- COCCN(CCOC)c1nc(-c2ccc([N+](=O)[O-])cc2)nc2ccccc12
 : -9	0.6%	-0.6	.	.	4
- CC(=O)NC12CC3CC(C1)CC(C(=O)OCC(=O)NC(=O)c1cccn1C)(C3)C2
 : 0	0.0%	-1.1	0	0.4	-3
- CC(C)(C)c1ccc(C(=O)NCCC(=O)N2CCC3(CC2)NCCc2[nH]cnc23)cc1
 : 3	-1.0%	3.5	1	1.2	-15

One compound at a time, from the list above. Screens in order: Six1-Eya2 blk | PINK1 expr mod | D2 agonist | CtBP-E1A blk | TRPML1 ag | D2 PAM
Results for O=C(/C=C/Nc1ccc(F)cc1Br)c1ccccc1 = 5 | 2.7% | 1.0 | 11 | 0.8 | -19
Results for C#CCOCCOCCOCCNc1nc(N2CCN(C(=O)CCCCCCCCCCNC(=O)Cn3cc(C[C@@H](C)O)nn3)CC2)nc(N2CCN(C(=O)CCCCCCCCCCNC(=O)[C@H](CO)n3cc(CCCSC)nn3)CC2)n1 = -1 | 1.4% | -3.3 | 0 | 0.2 | 9

The list goes on.
Below each SMILES – Six1-Eya2 blk	PINK1 expr mod	D2 agonist	CtBP-E1A blk	TRPML1 ag	D2 PAM
- CCc1cccc(CC)c1-n1c(SCC(=O)N2CCCc3ccccc32)nc(O)cc1=O
 : 4	-0.3%	-7.5	8	0.7	-3
- COc1ccc2nc(C)cc(N3CCN(c4ccccc4)CC3)c2c1
 : -19	0.1%	-4.7	-17	2.3	-23
- CC(=C\C(=O)O)/C(=C\c1cccc2ccccc12)C(=O)O
 : 0	-0.4%	-2.4	-8	1.0	-6
- Cc1ccc(-c2nc3ccc(Cl)cc3c(=O)n2O)cc1
 : 1	8.3%	-4.4	-1	6.0	-3
- O=C1C[C@@H]2C(=O)N(c3ccccc3)C(=O)[C@@H]2[C@@H]2CN(S(=O)(=O)c3ccccc3)[C@@H](c3ccccc3)[C@H]12
 : 0	2.4%	-5.6	1	0.5	-4
- COc1ccc(CCN2C(=O)c3cccc4cccc(c34)C2=O)cc1OC
 : -1	12%	-0.8	-21	-0.3	?
- COc1cccc(-c2nc(N)nc(SC)c2C#N)c1
 : -5	5.1%	-15	2	-0.6	-4
